HTT prom inh: inhibitors of huntingtin promoter activity; HEK293 HTT promoter firefly luciferase reporter (activity 0% = vehicle and -100% = no light), 24 h; Potency, µM (series often up to 57.5 µM), for the others: at the top dose activity change, negative = inhibition, actives largely listed as inhibitors; 0.93% of 48,000 active; active = well fitted inhibition curve with a large enough effect; inconclusive = small, poorly fitted or top-dose-only effect; inactive = no such curve, though single readings can be large or run the other way; also: nearly all actives have a fitted effect of over 50% in size
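Quantitative HTS used concentration series of up to 57.5 uM final on HEK293 luciferase reporter cells, 24 h at 37 degrees C. Readout was Dual-Glo firefly luminescence.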
PMP22 txn: modulates PMP22 transcription in S16 Schwann cells; S16 Pmp22-F2sN Schwann cells (luciferase reporters placed in the Pmp22 gene), FLuc/NLuc coincidence luminescence, 24 h; Potency, µM (titrated, usually from 57.5 µM), for the others: top-dose activity change, negative = inhibition, actives largely listed as inhibitors; 2% of 43,000 active; AID 1508649; active = clear falling dose curves in both reporters; inconclusive = both reporters move, but less clearly or upward; inactive = either reporter flat; the % is the NLuc reporter signal; also: % is scaled to controls: 0 for no effect and ±100 for the full control effect; some results filed as inactive show a strong effect at the top dose
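Reporter cells (S16 Pmp22-F2sN, 500–1,000 per well) exposed to compounds for 24 h, 37C, 5% CO2; lysis with FLuc read after 10 min, then Stop&Glo and NLuc read after 10 min.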
* = called active by the depositor; u = inconclusive; x = not tested or not shown; & = joins results of further samples; [ ] = remark or other dose. Potency is read from the fitted curve at half-maximal effect.

SMILES | HTT prom inh | PMP22 txn
Cc1ccccc1Cn1c(=O)n(Cc2ccco2)c(=O)c2oc3ccccc3c21 | u | -4.4%
CC[C@H](NC(=O)[C@H](C)NC)C(=O)N1C[C@@H](O)C[C@H]1Cc1c(-c2[nH]c3cc(F)ccc3c2C[C@H]2C[C@H](O)CN2C(=O)[C@H](CC)NC(=O)[C@H](C)NC)[nH]c2cc(F)ccc12 | u | x
CO[C@@H]1[C@@H](OC)[C@H](C)[C@@](O)(CC(=O)O)O[C@H]1[C@H](C)[C@H]1O[C@@]2(CC[C@@](C)([C@H]3CC[C@@](C)([C@@H]4O[C@@H]([C@H]5O[C@](C)(O)[C@H](C)C[C@@H]5C)C[C@@H]4OC4C[C@H](OC)[C@@H](OC)[C@H](C)O4)O3)O2)C[C@H](O)[C@H]1C (some centres undefined) | u | x
COc1ccc(C(=O)NCC(c2ccc(N(C)C)cc2)N2CCc3ccccc32)cc1OC (centres undefined) | -14.9% | u
Cc1ccc(CCNC(=O)c2ccc(CSCc3ccc(C)cc3)o2)cc1 | u | u
Cc1ccc(NC(=O)C2CCN(S(=O)(=O)c3cccc4nonc34)CC2)cc1C | u | -15.8%
COc1ccc(/C=C/C(=O)N2CCC(c3nc4ccccc4o3)CC2)cc1 | -13.3% | -24.3%
CC(=O)N1CCc2cc(S(=O)(=O)NC(Cc3ccccc3)C(=O)Nc3cc(C)cc(C)c3)ccc21 (centres undefined) | -23.3% | -11.4%
Cc1ccc(NC(=O)C2CCN(S(=O)(=O)c3cccc4nonc34)CC2)c(Cl)c1 | 1.3% | 2.5%
O=C(O)CN(CCOCCOCCN(CC(=O)O)CC(=O)O)CC(=O)O | -3.3%[0.739 µM] | x
CCOC(=O)c1cc(S(=O)(=O)NCc2ccc(Cl)cc2)[nH]n1 | -17.8% | 20.9%
Cc1ccc(NC(=O)Cn2ncn3c(cc4ccccc43)c2=O)cc1F | -18.4% | 16.8%
CC1CCc2onc(C(=O)N3CCN(c4ccc(F)cc4)CC3)c2C1 (centres undefined) | u | -16.1%
COc1ccc(CCNC(=O)CCCn2c(=O)c3ccccc3n(CC(=O)Nc3ccc(C)cc3Cl)c2=O)cc1OC | u | u
COc1ccc(C(CNC(=O)COc2ccc(C)c(C)c2)N2CCCCC2)cc1 (centres undefined) | -18.5% | -23.1%
CCN(CC)c1ccc(C2C(C(=O)Nc3ccccc3C)=C(C)Nc3ncnn32)cc1 (centres undefined) | -9.1% | 9.1%
CCc1ccc(OCc2ccccc2C(=O)Nc2ccc3nc(C)cc(N)c3c2)cc1 | u | x
COCCNC(=O)Cn1cnc2sc(C)c(S(=O)(=O)N3CCN(c4ccccc4OC)CC3)c2c1=O | -4.6% | -3.7%
CCOc1ccccc1NC(=O)CSc1nc2c(oc3ccccc32)c(=O)n1Cc1ccco1 | -15.1% | 11.3µM*
Cc1cccc(-c2noc(CNC(=O)c3ccc(C)cc3C)n2)c1 | u | 3.2%
CCOCCCn1c(=N)c(C(=O)NCC2CCCO2)cc2c(=O)n3cc(C)ccc3nc21 (centres undefined) | -2.3% | -43.2%
Cc1coc2c1C(=O)C(=O)c1c-2ccc2c(C)cccc12 | -6.2% | x
COc1cc(CN(C(=O)c2ccccc2Br)c2ccccn2)cc(OC)c1OC | -16.2% | -14.1%
O=C(COc1ccc(F)cc1)Nc1nnc(S(=O)(=O)N2CCCC2)s1 | -4.7% | 5.8%
CCOC(=O)C1CCCN(S(=O)(=O)c2cc(-c3cc(C)no3)ccc2OC)C1 (centres undefined) | u | -17.7%
COc1cccc(OC)c1C(=O)Nc1cccc(-c2nc3cc(C)cc(C)c3o2)c1 | -16.9% | u
Cc1nc2ccn(Cc3ccccc3)c(=O)c2cc1C(=O)N1CCN(c2ccccc2F)CC1 | u | 12.2%
Cc1ccc(-n2ncc3c(N4CCC(C(N)=O)CC4)ncnc32)cc1 | 0.316µM* | 12.6%
Cc1ccc(N(CC(=O)NCCc2ccc(Cl)cc2)S(=O)(=O)c2c(C)noc2C)cc1 | u | u
Cc1cc(C)c2c(CC(=O)Nc3nnc(CC(C)C)s3)coc2c1 | 2.3% | -45.8%
CCc1ccccc1NC(=O)Cn1c(=O)n(-c2ccc(CC(=O)NCC3CCCO3)cc2)c(=O)c2ccccc21 (centres undefined) | -10.0% | 7.4%
CCOc1ccc(NC(=O)Cn2nnc(C(=O)OC)c2C(=O)OC)cc1 | -12.2% | 4.8%
CCOc1ccccc1NC(=O)C(CC)n1c(C(=O)OC)cc2occc21 (centres undefined) | -21.8% | -8.4%
COc1ccc(-c2ccc(=O)n(CC(=O)Nc3ccccc3C(F)(F)F)n2)cc1 | 19.9% | 6.4%
CCc1ccc(CNC(=O)c2ccc3c(c2)nc2n3CCOC2)cc1 | 0.9% | 3.4%
COc1cc(Cl)c(C)cc1Nc1ncnc2c1nc1n2CCCC1 | 12.5% | -4.6%

6 records drawn at random from the list so far, as already listed:
SMILES | HTT prom inh | PMP22 txn
COc1cc(CN(C(=O)c2ccccc2Br)c2ccccn2)cc(OC)c1OC | -16.2% | -14.1%
CCOCCCn1c(=N)c(C(=O)NCC2CCCO2)cc2c(=O)n3cc(C)ccc3nc21 (centres undefined) | -2.3% | -43.2%
Cc1ccc(N(CC(=O)NCCc2ccc(Cl)cc2)S(=O)(=O)c2c(C)noc2C)cc1 | u | u
COCCNC(=O)Cn1cnc2sc(C)c(S(=O)(=O)N3CCN(c4ccccc4OC)CC3)c2c1=O | -4.6% | -3.7%
Cc1ccc(CCNC(=O)c2ccc(CSCc3ccc(C)cc3)o2)cc1 | u | u
COc1cccc(OC)c1C(=O)Nc1cccc(-c2nc3cc(C)cc(C)c3o2)c1 | -16.9% | u

Further records.
SMILES | HTT prom inh | PMP22 txn
CN1c2ccc(Cl)cc2-c2nc(SCC(=O)NCc3ccc(F)cc3)ncc2S1(=O)=O | -7.7% | -14.2%
Cc1ccccc1NC(=O)Cn1cc(C(=O)c2ccco2)c2ccccc21 | -23.9% | u
COc1ccc(C2C(C(=O)Nc3ccccc3)=C(C)Nc3nc(-c4ccc(Cl)cc4)nn32)cc1 (centres undefined) | u | u
COc1cc(NC(=O)C2CCN(c3cnc4ccccc4n3)CC2)cc(OC)c1OC | -16.2% | 10.3%
CCOc1ccc(NC(=O)Cn2c(=O)oc3cc(S(=O)(=O)N4CCCCCC4)ccc32)cc1 | u | -22.5%
NC(=O)Nc1sc(-c2ccc(F)cc2)cc1C(N)=O | u | x
Cn1c(=O)oc2cc(S(=O)(=O)NC(Cc3ccccc3)C(=O)Nc3ccc(F)cc3)ccc21 (centres undefined) | -23.9% | -7.9%
CC1CCCCN1c1csc2ccc(F)cc2c1=O (centres undefined) | 37.3% | 7.3%
COc1ccc(NC(=O)Cn2c(=O)n(CCCCCC(=O)NCc3ccc4c(c3)OCO4)c(=O)c3sccc32)cc1Cl | u | u
Cc1ccc2ncc(C(=O)N3CCN(c4ccccc4F)CC3)c(=O)n2c1 | -11.9% | -2.0%
CCOc1ccccc1NC(=O)C(Cc1ccccc1)NS(=O)(=O)c1ccc2c(c1)oc(=O)n2C (centres undefined) | -17.2% | 13.3%
Cc1c(-c2ccc(Cl)cc2)c(=O)oc2ccc(OC(=O)N3CCOCC3)cc12 | u | u
CC(CNC(=O)Cc1ccc(NC(=O)N2CCSc3ncccc32)cc1)c1ccccc1 (centres undefined) | u | -12.3%
CCOc1ccc(NC(=O)c2cc(S(=O)(=O)N3CCCCC3)c[nH]2)cc1 | u | -12.7%
O=C(CCC(=O)c1ccccc1)Nc1ccc(F)c(Cl)c1 | -5.6% | 0.3%
Cc1ccc(C)c(NC(=O)N2CCc3cc(S(=O)(=O)N4CCC(C)CC4)ccc32)c1 | -10.7% | -39.1%
CCc1nc(N)nc(N)c1-c1ccc(Cl)cc1 | -11.5%&-28.1% | x
Cc1ccc(CNC(=O)Cn2c3ncccc3c(=O)n2-c2ccccc2)cc1 | u | u
CC(=O)c1cccc(NC(=O)c2ccc(Cl)c(S(=O)(=O)N3CCOCC3)c2)c1 | -22.4% | -7.0%
CCc1ccc(Sc2cc(C(=O)NCc3cccc(OC)c3)c3ccccc3n2)cc1 | u | -43.1%
COc1cccc(COC(=O)c2ccc(-c3nnn(Cc4ccccc4)n3)cc2)c1 | 15.1% | -13.2%
Cc1cc(C)cc(NC(=O)c2sc3nc(-c4ccccc4)cn3c2C)c1 | u | -7.9%
CCNC(=O)CCSc1nnc(-c2ccc(O)cc2)o1 | 18.5% | -5.1%
O=C(NCc1ccc(Cl)cc1)c1cc2cccc3c2n1CCS3 | u | -7.8%
COc1ccc(CCNC(=O)c2ccc3[nH]c(C)c(C)c3c2)cc1OC | u | u
O=C(CCn1c(=O)c2sccc2n(Cc2cccc(F)c2)c1=O)NCc1ccc2c(c1)OCO2 | -0.2% | -0.2%
CCc1cccc(C)c1NC(=O)CN(C)S(=O)(=O)c1cccc2nsnc12 | -29.6% | -11.5%
COc1ccc(C)cc1NC(=O)c1cc(S(=O)(=O)N2CCOCC2)cn1C | 27.6% | -8.7%
COc1ccc(NC(=O)c2ccc(NC(=O)CCS(=O)(=O)c3cccs3)cc2)cc1 | 5.5% | u
CCN1CCc2c(sc(-n3cccc3)c2C(CCC(C)C)NC(=O)NCCC(=O)OC)C1 (centres undefined) | -25.2% | u
COc1ccc(NC(=O)c2sc3nc(-c4ccc(OC)cc4)cc(C(F)(F)F)c3c2N)cc1 | -13.6% | 3.9%
CCOc1ccc(N(C)C(=O)c2oc(=O)c3ccccc3c2-c2ccccc2)cc1 | u | u
Cn1c(=O)c2c(SCC(=O)Nc3ccc(F)cc3F)nc(C3CCCC3)nc2n(C)c1=O | -1.1% | u
COc1ccc(NC(=O)C2CCCN(S(=O)(=O)c3cccs3)C2)cc1 (centres undefined) | -18.7% | 42.3%
CCOc1ccccc1CNC(=O)c1c(C)oc2ncnc(N3CCOCC3)c12 | -9.1% | -13.5%
Cc1cc(C)cc(NS(=O)(=O)c2ccc3[nH]cc(C(=O)NCc4ccccc4Cl)c(=O)c3c2)c1 | u | 4.8%
CCN(C(=O)Cn1c(=O)oc2cc(S(=O)(=O)N3CCCCCC3)ccc21)c1cccc(C)c1 | -12.6% | -27.9%
COc1ccc(-c2[nH]nc3nc(-c4cc(OC)c(OC)c(OC)c4)cc(C(=O)O)c23)cc1 | 0.5% | 11.3%
CCCN(Cc1cccs1)C(=O)Nc1ccc(Br)cc1F | 11.8% | -43.2%
CCOc1ccccc1NC(=O)c1nnn(CC(=O)Nc2ccccc2CC)c1N | 9.2% | -27.8%
COc1cccc(CNC(=O)CN2C(=O)COc3ccc(S(=O)(=O)Nc4ccccc4)cc32)c1 | -27.3% | -5.9%
O=C(CCCCCn1c(=O)[nH]c2ccccc2c1=O)N1CCN(c2ccc(Cl)cc2)CC1 | -9.7% | u
COc1ccc(NC(=O)CCNS(=O)(=O)c2cccc3nonc23)cc1 | -4.2% | 3.9%
Cc1ccc(-n2ncc(C(=O)N3CCN(C4CCCCC4)CC3)c2C2CCN(C(=O)OC(C)(C)C)CC2)cc1 | 8.6% | -6.2%
COc1ccc(-c2noc(CSc3nc4ccc(C)cc4[nH]3)n2)cc1 | 28.2µM* | u
Cc1cccc(C2NC(=O)c3c(sc4c3CCN(C)C4)N2)c1O (centres undefined) | 42.5%[activator] | u
Cc1ccc(/C=C/C(=O)Nc2nc(-c3cccs3)ns2)cc1 | -7.7% | u
O=C(c1cc(S(=O)(=O)N2CCCC2)c[nH]1)N1CCN(c2cccc(Cl)c2)CC1 | -16.6% | -18.5%

Shown as a hit in HTT prom inh, among the entries above:
SMILES	HTT prom inh
Cc1ccc(-n2ncc3c(N4CCC(C(N)=O)CC4)ncnc32)cc1	0.316µM*
COc1ccc(-c2noc(CSc3nc4ccc(C)cc4[nH]3)n2)cc1	28.2µM*

Next compounds follow:
SMILES | HTT prom inh | PMP22 txn
CCC1CN(C(=O)N2CCC(C(=O)NCc3ccc(C)o3)CC2)c2ccccc2O1 (centres undefined) | -9.1% | -22.0%
COc1ccc2c(c1)CC(C(=O)NCCCN1CCN(c3ccc(F)cc3)CC1)CO2 (centres undefined) | -37.4% | u
Cc1ccc(C(=O)NCC(c2cccs2)S(=O)(=O)c2cccs2)cc1 (centres undefined) | u | u
Cc1nc2c(c(C)c1CCC(=O)NCc1ccc(Cl)cc1)c(=O)n(C)c(=O)n2C | -1.0% | 2.1%
CCC(Sc1nc2c(sc3ccccc32)c(=O)n1CCCC(=O)NC1CCCC1)C(=O)Nc1cccc(OC)c1 (centres undefined) | -24.8% | u
COc1ccc(NC(=O)CCc2nc3c(C)nn(-c4ccc(C)cc4)c3n(C)c2=O)c(OC)c1 | -4.2% | -27.0%
CCC(C)c1ccc2oc(-c3ccc(NC(=O)c4cc5ccccc5o4)cc3)nc2c1 (centres undefined) | u | -12.1%
